HIV TAR-Tat – HIV-1 TAR-Tat binding disruption | z-score (no concentration beside the values) | HIV-1 TAR RNA, Tat peptide displacement FRET; stronger effect = higher value | hit rate 0.6% among 100,000;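 note: score is relative to mean and SD of negative controls; some compounds called inactive have numbers as strong as hits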
CDC25B CDK2 inh – human CDC25B-CDK2/CyclinA binding inhibition. HTRF CDC25B-CDK2/CyclinA binding, anti-His/anti-Flag; stronger effect = higher value. z-score (no concentration beside the values). hit rate 0.72% among 94,000. P30305+P24941;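 note: score is relative to mean and SD of negative controls; strong numbers were not always called active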
Numbers without * were called inactive; nt = no result given.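 Rule for the calls: active = z-score from 3 up in half or more of its runs; inactive = the rest.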

SMILES	HIV TAR-Tat	CDC25B CDK2 inh
COc1ccc2c(c1)CC(NC(=O)Nc1ccc3c(c1)OCCO3)CO2 (configuration not stated)	0.63	nt
Cc1noc2ncnc(N3CCC(C(=O)NCCCOC(C)C)CC3)c12	2.1	nt
COc1ccc(-c2nc3n(n2)C(c2cccnc2)C2=C(CCCC2=O)N3)cc1 (configuration not stated)	1.4	2.3
CC1Cc2cc(S(=O)(=O)NC3CCCCC3)ccc2N1C(=O)C1CCC1 (configuration not stated)	-0.24	nt
Cc1ccc2nc(-c3cccc(S(=O)(=O)N4CCOCC4)c3)cn2c1	0.95	-0.56
CCn1cc(S(=O)(=O)c2cc(C)ccc2C)c(=O)c2cc(F)c(N3CCOCC3)cc21	-1	nt
Cc1c(N(C)CS(=O)(=O)O)c(=O)n(-c2ccccc2)n1C	1.9	nt
O=C(CC12CC3CC(CC(C3)C1)C2)Nc1scc2c(=O)oc3ccccc3c12	nt	-1.3
O=C(c1ccc(S(=O)(=O)N2CCCC2)cc1)N1CCN=C1SCc1cccnc1	nt	-1.6
CCOC(=O)Cc1[nH]c2ccccc2c1C(=O)OCC	0.62	-1
CC1(c2ccco2)NC(=O)NC1=O (configuration not stated)	-4.1	0.6
Cc1cc2n(n1)CCC(=O)N2C(C)C(=O)NCCCN1CCOCC1 (configuration not stated)	1.7	nt
COc1ccc2c(c1)CCc1c-2n[nH]c1C(=O)NCCc1cnc[nH]1	2.1	nt
Cc1ccc2cc(-c3noc(-c4ccccc4C)n3)c(=O)[nH]c2c1	-1.2	-0.39
Cc1cc(O)ccc1Nc1nc(-c2ccccn2)cs1	1.6	-0.33
CCCC(=O)N(c1ccc2oc(=O)sc2c1)S(=O)(=O)c1ccc(F)cc1C	-0.55	-1.9
Cc1ccc(CS(=O)(=O)c2oc(-c3cccs3)nc2S(=O)(=O)c2ccc(F)cc2)cc1	-0.12	-4.9
CCOC(=O)C1=C(C)Nc2nnnn2C1c1c[nH]c2ccccc12 (configuration not stated)	nt	0.5
CCN(CC)S(=O)(=O)c1ccc2c(c1)N(CC(=O)N1CCCCC1)C(=O)C1CCCCN21 (configuration not stated)	1.8	nt
C/C(=N\NC(N)=O)c1cc(Cl)cc(Cl)c1O	nt	-1.7
CCCCNC(=O)CCc1nc(-c2cccs2)no1	0.79	-0.31
O=C(NCCN1CCOCC1)c1ccc(CS(=O)c2ccc(Cl)cc2)o1 (configuration not stated)	1.9	nt
Clc1cccc(Cl)c1CO/N=C/c1cccs1	nt	-1.2
CCc1nn2cc(-c3cccc(Br)c3)nc2s1	0.43	-0.53
CCOC(=O)C1=C(C)NC(=O)NC1c1coc2ccccc2c1=O (configuration not stated)	nt	-1.7
CCC(SC1=NS(=O)(=O)c2ccccc2N1)C(=O)Nc1ccccc1F (configuration not stated)	-0.22	nt
CCc1nnc(SC(CC)C(=O)NCc2ccc(C)cc2)c2cc3occc3n12 (configuration not stated)	2.7	nt
COc1cc2c(cc1OC)C(=O)NC1(CCCC1)C2	nt	-0.58
CCOc1cc(/C=c2/sc3nc4cc(C)c(C)cc4n3c2=O)cc(I)c1OC	nt	-1.9
Cc1ccc(Cl)cc1NS(=O)(=O)c1cc(Br)cnc1N	0.99	0.41
CCOC(=O)c1cnc(C(F)(F)F)nc1NNC(=O)c1ccc(Cl)cc1	nt	-0.69
O=C(CSCc1csc2ccc(Cl)cc12)Nc1ccccc1Cl	nt	0.14
O=C(NCCCN1CCCC1=O)C1CCN(c2ccc(F)cc2)C1=O (configuration not stated)	1.3	nt
O=c1cc(Cn2c(SCc3ccc(F)cc3)nc3ccncc32)nc2ccccn12	-0.94	-0.1
CC1CC(C)CN(C(=O)CCCn2ncn3c(cc4occc43)c2=O)C1 (configuration not stated)	2.3	-2.3
CCN(CC)c1ccc(N=Nc2ccc(Br)cn2)c(O)c1	nt	-0.78
Cn1cc(-c2cc3n(n2)CCC(=O)N3CC(=O)NCc2ccco2)c2ccccc21	0.64	nt
CCOC(=O)C1CCN(c2cc(C)nc3nc(-c4ccco4)nn23)CC1	-0.85	nt
CCCCC(=O)Nc1ccccc1SCc1cc(=O)n2c(C)csc2n1	-0.13	nt
Cc1ccc(Cn2ccc(NC(=O)c3noc(C(C)C)c3[N+](=O)[O-])n2)cc1	0.99	2.3

Reprinted at random: 2 compounds from above
SMILES	HIV TAR-Tat	CDC25B CDK2 inh
CCc1nnc(SC(CC)C(=O)NCc2ccc(C)cc2)c2cc3occc3n12 (configuration not stated)	2.7	nt
CCN(CC)c1ccc(N=Nc2ccc(Br)cn2)c(O)c1	nt	-0.78

(cont.)
SMILES	HIV TAR-Tat	CDC25B CDK2 inh
CC1NC(=O)NC1CCCCC(=O)O (configuration not stated)	1.3	-0.23
N#Cc1sc2nc3ccccc3n2c1/N=C/c1cccs1	nt	-1.5
CCCCCOc1ccc(C2c3c(oc4ccccc4c3=O)C(=O)N2c2nnc(C)s2)cc1OC (configuration not stated)	4.1	-1.1
CC1C=CCC2C(=O)N(c3ncn[nH]3)C(=O)C12 (configuration not stated)	nt	-1.5
CCCCN(CC)CCCNC(=O)c1csc2c1CCCCC2	1.9	-1.2
COCCN1C(=O)c2[nH]nc(-c3ccccc3O)c2C1c1cccc(Oc2ccccc2)c1 (configuration not stated)	0.67	0.03
CC(C)=CCCC1(C)C=Cc2c(O)c3c(c(CC=C(C)C)c2O1)OC12C(=CCCC1C(C)(C)O[C@@]2(C/C=C(\C)C(=O)O)C(=O)O)C3=O (some centres not stated)	2.2	nt
Cc1cnc(=O)[nH]c1SCC(=O)Nc1nc2ccccc2s1	1.1	nt
CC(CC(=O)Nc1ccc(Cl)cc1F)S(=O)(=O)c1ccc2c(c1)NC(=O)CS2 (configuration not stated)	-2.3	nt
O=C(CSc1cccc2cccnc12)OCC(=O)c1ccc(Br)cc1	-1.5	-1
CCOC(=O)c1nnn(-c2nonc2NC(C)=O)c1C	-0.75	-0.63
CCCN1C(=O)N(c2ccc(C)c(Cl)c2)C2CS(=O)(=O)CC21 (configuration not stated)	0.46	nt
Cc1nnc2c3ccccc3nc(Nc3ccc(F)cc3)n12	-0.03	-8.3
CCCNC(=O)Nc1cc2c(cc1N1CCCCC1)n(C)c(=O)n2C	1.3	0.17
CCCCC[C@H](O)/C=C/C1=C(CCCCCCC(=O)O)C(=O)CC1	2.6	nt
CCSC1=C(C#N)C(c2ccccc2)CC(=O)N1 (configuration not stated)	0.04	-0.98
CCCC1OCC2(CO)C(C)C=C(C)C1C2C (configuration not stated)	nt	-2.4
N#Cc1cncc(Br)c1	nt	-1.3
O=C(Oc1ccc2c(=O)c(Oc3ccc4ccccc4c3)coc2c1)c1cncc(Br)c1	0.79	-1.9
CCCCc1c(C)nc2nc(NCc3cccs3)[nH]n2c1=O	-0.52	-2.3
Cc1ccc(-n2ncc3c(=O)[nH]cnc32)c(C)c1	0.34	-0.75
COc1ccc(OCc2nc(-c3ccc(S(=O)(=O)N4CCCCC4)cc3)no2)cc1	0.25	nt
CCOC(=O)N1CCN(c2cc(C)nc3c(-c4ccc(Cl)cc4)c(C)nn23)CC1	1.3	nt
CCCCN(CC)Cc1c(C)[nH]c2c(ccc3ccccc32)c1=O	nt	-1.5
O=C(COc1ccc(F)cc1)N(Cc1cccs1)C1CCS(=O)(=O)C1 (configuration not stated)	0.93	-1.1
CCOc1cc(C2C(C(=O)OCCc3ccccc3)=C(C)NC3=C2C(=O)CC(C)(C)C3)ccc1O (configuration not stated)	20	-0.28
Cc1ccc(-c2nc(SCc3cc(=O)n4[nH]cnc4n3)n[nH]2)cc1	2.4	nt
CN(C/C=C/C#CC(C)(C)C)Cc1cccc2ccccc12	2.8	nt
O=C(NCc1ccccn1)C1c2ccccc2Oc2ccccc21	-0.56	1.3
CCOC(=O)c1c(C)[nH]c(C)c1S(=O)(=O)NCC(=O)NC1CCC(C)CC1 (configuration not stated)	0.44	nt
C/C(=N\NC(N)=O)c1cccs1	nt	-1.9
Cn1ncc2c(Nc3cccc(Cl)c3)nc(NCCO)nc21	2	nt
Cc1ccc(OCCSc2nc3ncnc(N)c3[nH]2)cc1	2.3	-1.3
O=c1[nH]c(Nc2nc(-c3ccccc3)c3cc(Cl)ccc3n2)nc2c1CCC2	0.5	0.16
N#Cc1nc(/C=C/c2cccs2)oc1N1CCN(Cc2ccccc2)CC1	-0.77	-1.2
O=C(Nc1ccc(F)cc1)c1cnc2sccn2c1=O	0	-1.9
Cc1cc(C)c(OCC(=O)N(Cc2ccco2)C2CCS(=O)(=O)C2)c(C)c1 (configuration not stated)	1.4	-0.43
CC(C)(O)C(=O)OCC(=O)c1ccc(Cl)cc1	nt	-1.8
CCCOC(=O)CCc1n[nH]c(=O)[nH]c1=O	0.01	-2.3
CCC(Sc1nc(C)c(Cc2ccccc2)c(=O)[nH]1)C(=O)O (configuration not stated)	0.37	-2.2

Some of these compounds in order of formula weight, ascending:
SMILES	HIV TAR-Tat	CDC25B CDK2 inh
N#Cc1cncc(Br)c1	nt	-1.3
CCc1nn2cc(-c3cccc(Br)c3)nc2s1	0.43	-0.53
Cc1ccc(-c2nc(SCc3cc(=O)n4[nH]cnc4n3)n[nH]2)cc1	2.4	nt
CC1Cc2cc(S(=O)(=O)NC3CCCCC3)ccc2N1C(=O)C1CCC1 (configuration not stated)	-0.24	nt

Following part:
SMILES	HIV TAR-Tat	CDC25B CDK2 inh
O=C(CS(=O)(=O)CS(=O)(=O)CC(=O)NNC(=S)Nc1ccccc1)NNC(=S)Nc1ccccc1	nt	0.09
CCC(C)NS(=O)(=O)c1ccc2c(c1)CCCC(=O)N2 (configuration not stated)	1.1	nt
CCOC(=O)N1CCC(N2C(=O)c3ccccc3C2Nc2ccc(Cl)cn2)CC1 (configuration not stated)	1.7	1.2
CCCCCOC(=O)C1=C(C)Nc2ncnn2C1c1ccccc1F (configuration not stated)	2.4	-1.1
Clc1ccc(-c2ncnn2-c2ccc(Cl)cc2)cc1	1.1	-1.6
O=C(NCc1ccc(F)cc1)C1CC(c2ccc(F)cc2)=NO1 (configuration not stated)	2.7	-0.95
CCOC(=O)C(C)n1cnc2c(oc3ccccc32)c1=O (configuration not stated)	1.6	nt
Cn1cc(S(=O)(=O)N2CCCC2)cc1C(=O)Nc1ccc(F)cc1F	0.51	nt
CCN1CCN(C(=O)C2CCN(c3nnc(N4CCCCC4=O)s3)CC2)CC1	2	nt
Cc1ccc(F)cc1Nc1nc2ccccc2c2nncn12	0.9	nt
CSC1=NCCN1S(=O)(=O)c1ccccc1C	0.78	0.28
Cc1ccc(S(=O)(=O)NC(=O)NNC(=O)C(F)(F)C2(F)OC(F)(F)C(F)(F)C2(F)F)cc1 (configuration not stated)	nt	-2.3
CC1=C(c2ccc(F)cc2)S(=O)(=O)N(Cc2ccc(C(=O)NC(C)C)cc2)C1=O	-0.36	nt
CN(C)c1ncnc2c1c(-c1ccccc1)cn2-c1cccc(Cl)c1	-0.2	1.3
O=C(O)/C(=C/c1cccc([N+](=O)[O-])c1)c1ccccc1	nt	-1
CCN(CC)CCN(C(=O)C1=COCCO1)c1nc2ccc(Cl)cc2s1	0.97	nt
COC(=O)C1=C(NC(=O)c2cccc(Br)c2)CCS1	1.1	1.3
CCCN(CCC)CCNc1ncnc2onc(C)c12	0.73	nt
O=C(CN1C2=NCCCN2c2ccccc21)N1CCOCC1	nt	-0.34
COc1cc(OC)c(OC)cc1CN1CCN(C2CCCCCC2)CC1	nt	-0.86

Compounds above that contain bromine, in the order listed:
SMILES	HIV TAR-Tat	CDC25B CDK2 inh
CCc1nn2cc(-c3cccc(Br)c3)nc2s1	0.43	-0.53
Cc1ccc(Cl)cc1NS(=O)(=O)c1cc(Br)cnc1N	0.99	0.41
CCN(CC)c1ccc(N=Nc2ccc(Br)cn2)c(O)c1	nt	-0.78
O=C(CSc1cccc2cccnc12)OCC(=O)c1ccc(Br)cc1	-1.5	-1
N#Cc1cncc(Br)c1	nt	-1.3
O=C(Oc1ccc2c(=O)c(Oc3ccc4ccccc4c3)coc2c1)c1cncc(Br)c1	0.79	-1.9
COC(=O)C1=C(NC(=O)c2cccc(Br)c2)CCS1	1.1	1.3

(cont.)
SMILES	HIV TAR-Tat	CDC25B CDK2 inh
Cc1ncc(CO)c(CNc2ccc(C(C)C)cc2)c1O	0.58	nt
COC(=O)c1sc2ccccc2c1S(=O)(=O)Nc1ccc(N(C)C)cc1	-0.98	nt
O=C(c1ccncc1)N(c1ccc2oc(=O)sc2c1)S(=O)(=O)c1ccc(Cl)cc1	4.8	-0.85
COC(=O)c1c(NC(=O)c2snnc2C)sc2c1CCCC2	-0.85	-1.1
CCN(CC)CCCNC(=O)C(C)n1nc(C)c2sc3ccccc3c2c1=O (configuration not stated)	0.81	-0.02
Cn1c(=O)c2c(-c3ccccc3Br)n(-c3ccccc3N)cc2n(C)c1=O	2.5	0.87
CCN(CC)C(=O)c1cc2c(s1)-c1ccc(Cl)cc1S(=O)(=O)C2	0.34	0.05
CCOC(=O)c1c(NC(=O)c2cc3ccccc3c(=O)s2)sc2c1CCC(C)C2 (configuration not stated)	1.3	-0.82
Cc1ccc(S(=O)(=O)Nc2ccc3[nH]c(=O)oc3c2)cc1C	0.9	nt
Nc1c(-c2ccc(Cl)cc2)cnc2c(-c3ccccc3)cnn12	0.49	-2.9
CCCn1c(SCCO)nc2c(c1=O)C1(CCCC1)Cc1ccccc1-2	2.3	-1.2
CC(=O)N1CCCSc2ccc(S(=O)(=O)N3CCCC3)cc21	0.39	nt
Cc1noc(/C=C/c2cc(C)n(-c3ccc(C(=O)O)cc3)c2C)c1[N+](=O)[O-]	-8.8	0.08
CCOC(OCC)c1ccc(C=C(C#N)C#N)cc1	nt	-0.54
Cc1ccc(S(=O)(=O)N(Cc2nc(-c3cccc(C)c3)no2)C(C)C)cc1	1.1	-2.2
Cc1nc2ccc(Cl)cn2c(=O)c1NC(=O)CCC1CCCCC1	1.1	nt
CCc1nc(Oc2cccc(F)c2)c2oc3ccccc3c2n1	0.83	nt
Cn1c(Cn2c(=O)sc3ccccc32)nnc1SCc1cccc(F)c1	nt	-0.13
CS(=O)(=O)c1nc(S(=O)(=O)c2ccc(Cl)cc2)c(NCc2ccc3c(c2)OCO3)s1	0.04	-19
Cc1nc2ncccn2c1-c1csc(Nc2ccc(O)cc2)n1	2.1	0.64

Screening results from PubChem BioAssay.
